# Screening data as filed in PubChem.
# HSD17B inh – HSD17B dehydrogenase inhibition. Q99714. recombinant HSD17B10, NADH fluorescence kinetic; many of its hits are not listed in these tables. Potency, µM (doses to about 57.1 µM), for inactives: at the top dose activity change, negative = inhibition, usual class: inhibitors. actives 7.6% (n = 75,000). AID 893; active = well fitted inhibition curve with a large enough effect; inconclusive = small, poorly fitted or top-dose-only effect; inactive = no such curve, though single readings can be large or run the other way;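 note: the protocol describes HADH2 (HSD17B10) and not the HSD17B4 of the title; nearly all actives have a fitted effect of over 70% in size; most hits overshoot -100% by far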
#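 Enzyme plus compound, 15 min room temperature; substrate mix added (NAD+ 1 mM, beta-hydroxybutyryl-CoA 90 uM final); plates read kinetically for NADH fluorescence. HADH2 was His-tagged, E. coli-derived, 20 nM.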
# Numbers without * were called inactive; u = inconclusive; [ ] = dose if it differs, or a comment. % is set by controls: 0 for no effect and ±100 for the full control effect; potency is the fitted concentration of half-maximal effect. A portion of the library, so the mix of outcomes need not match the whole.
No.	SMILES	HSD17B inh
1	c1cncc(C(c2nnnn2C2CCCC2)N2CCN(Cc3ccc4c(c3)OCO4)CC2)c1 (stereo not drawn)	2.1%
2	CCN1CCN(c2oc(-c3ccc(OC)cc3)nc2C#N)CC1	25.1µM*
3	CC(NS(=O)(=O)c1ccc(Br)cc1)C(c1cccs1)N1CCN(C)CC1 (stereo not drawn)	3.5%
4	O=C(NCCN1CCN(c2ccccc2F)CC1)C1CCCN(S(=O)(=O)c2cnc[nH]2)C1 (stereo not drawn)	5.2%
5	Cc1ccc(N2CCN(C(=S)c3ccc(N(C)C)cc3)CC2)cc1	-27.7%
6	C#CCCCO/N=C1/C[C@@H](O)[C@@H](O)[C@@H]2[C@@H]3C(=O)N(Cc4ccc5c(c4)OCO5)C(=O)[C@H]3CC[C@H]12	4.5%[11.4 µM]
7	COc1ccccc1Nc1nc2ccccc2n1C	2.7%
8	CC[C@H](c1ccc(O)cc1)[C@@H](CC)c1ccc(O)cc1	-12.9%[25.6 µM]
9	O=C(Cn1ncc2c1-c1ccccc1OC2)N1CCN(c2ccccn2)CC1	u
10	O=C(COC(=O)c1ccccc1C(=O)c1ccccc1)c1ccco1	7.4%
11	CCOC(=O)N1CCN(C(=O)Nc2ccc(Cl)cc2Cl)CC1	-1.3%
12	CCCCCCN(CCCCCC)C(=O)Cc1c(-c2ccc(F)cc2)[nH]c2ccccc12	31.6µM*
13	CCOc1ccc(CNC(=O)C2CC(=O)N(C3CCCC3)C2)cc1OC (stereo not drawn)	2.7%
14	Cc1onc(-c2c(F)cccc2Cl)c1C(=O)Nc1nc2c(s1)CCCC2	20µM*
15	O=C(Nc1ccc(-c2cn3ccsc3n2)cc1)c1ccc(F)c(S(=O)(=O)N2CCOCC2)c1	34.7%[activator]
16	CCOc1ccc(-c2nnc3n2N=C(c2ccc(OC)cc2)CS3)cc1	-1.4%
17	CCC1=Nc2ccccc2-c2nnc(SC)nc2O1	3.9%
18	Nc1c(C(=O)NCCc2ccccc2)nnn1Cc1ccccc1	-0.6%
19	O=C(Nc1ccc2c(c1)OC1(CCCC1)O2)C1CC1	0.9%
20	Nc1nc2c(nc(Cl)n2C2OC(CO)C(O)C2O)c(=O)[nH]1 (stereo not drawn)	2.3%

# Continued:
No.	SMILES	HSD17B inh
21	COc1cc(=O)[nH]c(=O)n1C(=O)Cc1ccccc1	-2.6%
22	CC(C)(C)NS(=O)(=O)c1ccc(CCC(=O)NCc2ccco2)cc1	-2.8%
23	Cc1nc2ccc(F)cc2cc1C(=O)NCC1CCCO1 (stereo not drawn)	-0.5%
24	CCCCCCN=C(C)C1=C(O)C(C(=O)OC)C(C)(C)CC1=O (stereo not drawn)	2.0%
25	O=C(Nc1ccc2c(c1)OCCO2)c1ccc(Br)c(S(=O)(=O)N2CCOCC2)c1	u
26	O=C1c2ccccc2C(=O)N1CCC(=O)N1CCc2ccccc21	-11.5%
27	O=C1c2ccccc2C(O)(c2ncc[nH]2)N1C1CCCCC1 (stereo not drawn)	-0.2%
28	Cn1c(=O)c2c(nc(CN3CCN(C(=O)c4ccco4)CC3)n2Cc2ccccc2)n(C)c1=O	10.4%
29	COCCn1nnnc1C(c1cc2ccc(C)cc2[nH]c1=O)N(Cc1ccco1)Cc1cccs1 (stereo not drawn)	u
30	Cn1c(CO)nc2cc(N)ccc21	-1.7%
31	COc1ccc(Cc2nn3c(-c4ccccc4Br)nnc3s2)cc1	-11.3%
32	O=C(Nc1ccc(N2CCN(Cc3ccccc3Cl)CC2)cc1)c1cccnc1	u
33	Cc1cc(NC(=O)C2CC(c3cccc(Br)c3)=NO2)no1 (stereo not drawn)	-0.6%
34	CCCc1nc2oc3c(NCCOCCO)ncnc3c2c2c1COC(C)(C)C2	31.6µM*
35	CC(C)C(NS(=O)(=O)c1cccs1)C(=O)N1CCc2ccccc2C1 (stereo not drawn)	-6.1%
36	CC(=O)CCc1ccc2oc(C(=O)O)c(C)c2c1	0.0%
37	O=C(NC1CCCCCC1)c1cccs1	-3.1%
38	CCN1CCN(CCCNC(=O)C2c3ccccc3C(=O)N(C)C2c2ccc(OC)cc2)CC1 (stereo not drawn)	9.5%
39	CC(C)(C)n1ncc2c(=O)n(Cc3ccc(Cl)cc3Cl)cnc21	-4.4%
40	O=C(Nc1ccc2c(c1)oc1ccc(S(=O)(=O)N3CCCC3)cc12)C1CC1	-21.2%

# (further entries)
No.	SMILES	HSD17B inh
41	COC(=O)CSc1nc2ccccc2c(=O)n1C	-11.5%
42	Cc1sc2ncn(CCn3cnc4sc(C)c(C)c4c3=O)c(=O)c2c1C	-7.5%
43	CC12CC(NC(=O)N1CCc1ccccc1)c1cc(Cl)ccc1O2 (stereo not drawn)	14.8%
44	CC(C)(C)c1cc(C(=O)N2CCc3ccccc32)ccn1	6.3%
45	CN(C)CCCNc1oc(-c2ccccc2)nc1C#N	25.1µM*
46	CCCS(=O)(=O)N1CCc2cc(OC)c(OC)cc2C1	1.1%
47	Cn1c(=O)c2c(nc(N3CCc4ccccc4C3)n2Cc2ccccc2F)n(C)c1=O	-0.5%
48	CN(Cc1ccco1)c1nc(-c2ccccc2Cl)nc2ccccc12	-29.3%
49	CCOC(=O)c1ccc2ncc(C(=O)OCC)c(NCc3ccco3)c2c1	25.1µM*
50	CN1CCN(c2nc(N3CCN(c4ccccc4)CC3)ncc2F)CC1	-1.6%
51	O=C(CSc1nnc(C2CC2)n1Cc1ccccc1)c1ccc(S(=O)(=O)N2CCOCC2)cc1	-2.5%
52	Cc1cc(C)n2nc3ccccc3c2n1	u
53	C=C1N(CCCCCC(=O)O)C(=O)OC12CCCCC2	12.1%
54	O=C1c2ccccc2C(=O)N1CCCCCc1nc(-c2ccccc2)no1	-8.6%
55	S=c1[nH]nc(SCc2ccccc2Cl)c2[nH]cnc12	u
56	O=C(Oc1ccc2ccccc2c1Cl)N1CCCC1	-5.0%
57	COc1ccc(Cn2c(C3CC3)nc3ccc(NC(=O)c4ccco4)cc3c2=O)cc1	96.0%[activator]
58	Cc1noc(C)c1-c1nc(NCc2cccnc2)c2ccccc2n1	-11.6%
59	N#Cc1cccc(NC(=O)c2ccccc2C(=O)O)c1	-5.4%
60	COc1ccc2nc(NC(=O)CCNS(=O)(=O)c3ccc4c(c3)oc(=O)n4C)sc2c1	2.2%

# Going on with the list:
No.	SMILES	HSD17B inh
61	CCSc1nnc2c(n1)[nH]c1c(C)cccc12	-4.8%
62	CCn1nc(C(=O)OCC(=O)NCCN2C(=O)CSC2=O)c2ccccc2c1=O	5.7%
63	O=C(NC1=NCCS1)C1COc2ccccc2O1 (stereo not drawn)	1.6%
64	COc1ccc2[nH]cc(CCNc3ncncc3-c3ccc4c(c3)OCO4)c2c1	9.9%
65	Cc1ccc(CSc2nnc(-c3ccccn3)n2C)cc1	2.0%
66	COc1ccc(C(=O)N2CCC3(CC2)CN(C(=O)Nc2ccccc2)C3)cc1	9.7%
67	CCNC(=O)CN(Cc1ccccc1)S(=O)(=O)c1ccccc1	11.8%
68	NC(=O)c1ccc(-n2nnnc2Oc2ccccc2C(=O)N2CCOCC2)cc1	0.7%
69	O=c1oc2ccccc2c(O)c1C=NCc1ccccn1	-7.3%
70	O=C(OCc1ccccc1)c1ccc(Br)o1	-0.5%
71	O=C(c1cc(C(F)(F)F)cc(C(F)(F)F)c1)N1CCC2(CC1)CN(c1ccccn1)C2	7.94µM*
72	COC(=O)c1cc(NC(=O)Cc2coc3cc(OC)ccc23)cc(C(=O)OC)c1	12.9%
73	COC(=O)CN(c1cccc(OC)c1)S(C)(=O)=O	7.3%
74	CC1CCCCN1CCCn1c(=S)[nH]c2ccccc2c1=O (stereo not drawn)	-0.3%
75	O=C(CCCCCn1c(SCC(=O)c2ccccc2)nc2ccccc2c1=O)NCc1ccco1	-24.6%
76	CCc1c(C)nc2ncnn2c1NCCc1ccc(OC)cc1	-2.4%
77	COCCNC(=O)CNS(=O)(=O)c1ccc2nc(C)sc2c1	-6.0%
78	Cc1cc(=O)n2[nH]c(COc3ccccc3)nc2n1	5.5%
79	O=C(c1cccs1)N1CCN(CCc2ccccc2)CC1	2.0%
80	COc1ccc(N2CCCn3c2nc2c3c(=O)n(Cc3ccc(F)cc3)c(=O)n2C)c(OC)c1	2.5%

# Next section; it opens with the 3 that closed the last part.
No.	SMILES	HSD17B inh
78	Cc1cc(=O)n2[nH]c(COc3ccccc3)nc2n1	5.5%
79	O=C(c1cccs1)N1CCN(CCc2ccccc2)CC1	2.0%
80	COc1ccc(N2CCCn3c2nc2c3c(=O)n(Cc3ccc(F)cc3)c(=O)n2C)c(OC)c1	2.5%
81	COc1ccccc1N(CC(O)CN1C(=O)NC(C)(C)C1=O)S(=O)(=O)c1ccc(C)cc1 (stereo not drawn)	8.7%
82	O=C(Cn1cc2c(n1)CCCCC2)NCc1ccccn1	2.3%
83	COc1ccc(OCc2ccc(C(=O)O)cc2)cc1	1.3%
84	O=C1CCN(S(=O)(=O)c2ccccc2)C2CCCCC12 (stereo not drawn)	3.6%
85	CC(C)NC[C@@H](O)COc1ccccc1-n1cccc1	5.9%
86	O=C(C1CCN(S(=O)(=O)c2cccc3cccnc23)CC1)N1CCCC1	1.4%
87	Cc1cccc(C(=O)N2CCC(n3nnc4cc(F)ccc43)CC2)c1	-2.0%
88	CCCCCn1c(=O)[nH]c2cc(C(=O)NCCN(CC)CC)ccc2c1=O	31.6µM*
89	Cc1ccc(CNC(=O)C(C)OC(=O)c2ccco2)cc1 (stereo not drawn)	6.3%
90	CCOc1ccc(NC2=NCC(=O)N2CCc2ccccc2)cc1	-2.3%
91	Cc1cc(OCC(=O)Nc2cc(-c3nn4c(C)nnc4s3)ccc2C)ccc1Cl	-8.5%
92	Cc1c(C(=O)OCC(=O)N(CCC#N)c2ccccc2)oc2c1ccc1ccccc12	31.6µM*
93	CCOC(=O)/C=C1\SCC(=O)N1CC(=O)c1ccc[nH]1	u
94	CCOC(=O)Cn1c(=N)n(Cc2ccccc2)c2ccccc21	9.0%
95	C[C@@H](c1ccccc1)N1C(=O)[C@H]2[C@H]3[C@H](O)[C@H](O)C/C(=N/OCc4ccccc4)[C@@H]3CC[C@@H]2C1=O	2.4%[11.4 µM]
96	O=C1CCCN1CCCNc1ncnc2c1cnn2-c1ccc(Cl)cc1	u
97	COc1ccc(-c2noc(CCCC(=O)NCc3ccco3)n2)cc1OC	-5.9%
98	CCC(=O)Nc1cccc(NC(=O)CSc2nnnn2C2CCCC2)c1	3.9%
99	CCSc1nnc(N2C(=O)CC(c3ccsc3)C3=C2CC(C)(C)CC3=O)s1 (stereo not drawn)	-4.0%
100	CCOc1ccc(C(=O)c2ccncc2)cc1	-5.1%

# Next results:
No.	SMILES	HSD17B inh
101	COC(=O)[C@@H]1C[C@H]1[C@@H](NC(=O)c1cc(C)on1)c1ccccc1	3.8%
102	CCCc1cc(=O)oc2cc(C)cc(OCC(=O)O)c12	25.1µM*
103	COc1ccc(C2C(C#N)=C(N)Oc3n[nH]c(-c4ccccn4)c32)c(OC)c1OC (stereo not drawn)	-3.5%
104	CCOC(=O)C1=C(C)NC(=O)N[C@@H]1c1coc2cc(C)cc(C)c2c1=O	12.6%[11.4 µM]
105	Cc1csc(/C(C#N)=N/O)n1	-3.0%
106	O=C(CSc1ncccc1-c1nc2ccccc2[nH]1)NCc1ccco1	31.6µM*
107	CC(/C=N/n1cnnc1)=C\c1ccco1	-20.7%
108	COc1ccc(-n2nnnc2S(=O)(=O)CC(=O)N2CCCCC2)cc1	-8.7%
109	Cc1noc(C)c1-c1cc(NCCN2CCOCC2)ncn1	-0.7%
110	O=C(NCc1ccccc1)C1CCCN1S(=O)(=O)c1cccc2cccnc12 (stereo not drawn)	2.5%
111	CCOC(=O)CN1C2=NCCN2c2ccccc21	6.7%
112	Cc1ccc(OCCCC(=O)N2CCOCC2)c(C)c1	3.7%
113	Cc1cc(S(=O)(=O)N2CCN(Cc3ccccc3)CC2)c(C)s1	2.4%
114	COc1ccc(C2(C(=O)Nc3ccc(C(=O)O)cc3)CCOCC2)cc1	6.5%
115	O=S1(=O)N=C(Oc2ccccc2)c2ccccc21	2.4%
116	CN(C)c1ccc(P(=O)(OCc2ccccc2)C(O)c2ccncc2)cc1 (stereo not drawn)	4.0%
117	Cc1[nH]c(=O)[nH]c(=O)c1CSc1nnc([C@@H](NC(=O)OC(C)(C)C)C(C)C)o1	3.4%
118	CCOC(=O)CCc1c(C)c2ccc(OC(C)C(=O)OCC)c(C)c2oc1=O (stereo not drawn)	25.1µM*
119	O=C(CSC1=NCCS1)NC1CCCCC1	0.0%
120	O=c1nc2c(-c3ccccc3F)n[nH]n2c2ccccc12	20µM*

# Next section.
No.	SMILES	HSD17B inh
121	COc1ccccc1C(=O)Nc1c2c(nn1-c1cccc(C)c1C)CS(=O)C2 (stereo not drawn)	-8.4%
122	CSc1ccccc1-n1nnnc1SCc1ccccc1	-19.0%
123	CC(=O)c1cccc(NC(=O)COc2ccc(S(=O)(=O)N3CCCCC3)cc2)c1	-18.8%
124	CCN1CCN(C(c2cccs2)C(C)NC(=O)c2ccccc2F)CC1 (stereo not drawn)	10.6%
125	Clc1cccc(-c2nc3nc4ccccc4nc3n2Cc2ccco2)c1	u
126	O=C(Nc1cnccn1)c1ccncc1	0.5%
127	COC(=O)N1CCC2(CCCN(c3ccc(-c4ccccc4)cc3)C2)CC1	u
128	NC(N)=NCCCC(=O)O	2.0%[11.4 µM]
129	Cc1ccc(-n2nc(C)c3c2OC(N)=C(C#N)C3c2cccs2)cc1 (stereo not drawn)	-1.9%
130	CC(=O)CCc1ccc(OCCCCn2cncn2)cc1	2.4%
131	Cn1cc(/C=N/n2cnc3sc4c(c3c2=O)CCCC4)c2ccccc21	-0.7%
132	NNC(=O)CCSc1ccccc1	10.7%[11.4 µM]
133	CCCCCOC(=O)C1C2C=CC3(CN(c4ccccc4C)C(=O)C13)O2 (stereo not drawn)	9.2%
134	N#Cc1c(/N=C/N2CCCC2)oc(-c2ccccc2)c1-c1ccccc1	-3.8%
